CHT PAM: CHT positive allosteric modulators, primary screen, cell-based, membrane potential dye, choline EC20. AID 488977, 2010. CHT-expressing cells; hits give high values; LV-AA mutant CHT in HEK293 cells. High affinity choline transporter 1 (Homo sapiens), Q9GZV3. B-score at 10 µM. 310,000 tested, 0.49% active;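 active means initial fluorescence not abnormally high and integrated response B-score, plate-corrected, over 3 SD above library mean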
Target sequence (Q9GZV3 whole entry, looked up): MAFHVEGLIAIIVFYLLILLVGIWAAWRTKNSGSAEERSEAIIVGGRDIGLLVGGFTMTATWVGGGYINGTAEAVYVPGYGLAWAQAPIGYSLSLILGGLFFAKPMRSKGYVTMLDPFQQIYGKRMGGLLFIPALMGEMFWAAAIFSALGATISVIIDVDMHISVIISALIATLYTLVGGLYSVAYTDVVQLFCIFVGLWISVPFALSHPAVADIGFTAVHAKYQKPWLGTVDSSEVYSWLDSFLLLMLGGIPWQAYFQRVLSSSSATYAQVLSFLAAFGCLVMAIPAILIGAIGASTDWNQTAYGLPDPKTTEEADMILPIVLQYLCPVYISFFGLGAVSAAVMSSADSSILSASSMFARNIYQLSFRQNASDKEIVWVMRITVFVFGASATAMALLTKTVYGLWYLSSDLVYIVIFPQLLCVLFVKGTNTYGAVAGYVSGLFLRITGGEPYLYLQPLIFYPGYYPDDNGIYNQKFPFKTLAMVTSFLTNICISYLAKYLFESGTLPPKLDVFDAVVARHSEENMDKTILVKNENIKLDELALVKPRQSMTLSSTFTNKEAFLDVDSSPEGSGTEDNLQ
Calls only; i = inactive. Not all compounds are listed, and most or all hits are left out here.

SMILES	CHT PAM
O=C(Nc1ccc(-c2cccc(F)c2)cc1)C1CCCN(Cc2ccccn2)C1 (stereo unspecified)	i
Cc1occc1-c1nnc(SCC(=O)Nc2ccc(F)cc2)n1C	i
Cc1cccc2cc(C(c3nnnn3CC3CCCO3)N3CCCc4ccccc43)c(=O)[nH]c12 (stereo unspecified)	i
Cc1cccc(/C=C2/SC(=O)N(Cc3ccccc3)C2=O)n1	i
CCn1c(CNC(=O)c2ccccc2F)nnc1SCC(=O)NC1CCCCC1C (stereo unspecified)	i
O=C(Oc1ccnc2cc(Cl)ccc12)N1CCOCC1	i
CC1CN(C(=O)CN2C(=O)NC3(CCCCCCC3)C2=O)CC(C)O1 (stereo unspecified)	i
CSCCC(NC(=O)c1cccc([N+](=O)[O-])c1)c1nc2ccccc2[nH]1 (stereo unspecified)	i
CN(C)c1nc(NCc2ccccc2)nc(N/N=C/c2ccccc2F)n1	i
O=C(O)CCC1COc2ccccc2O1 (stereo unspecified)	i
COc1ccc(CNC(=O)/C=C/c2cc([N+](=O)[O-])ccc2OC(F)F)cc1OC	i
CCC(C)NC(=O)CSc1ncnc2sccc12 (stereo unspecified)	i
COc1ccccc1CN1CCN(C(c2ccccc2)c2ccccc2)CC1	i
O=C(NCCSCc1c(F)cccc1Cl)c1ccco1	i
COc1ccc(CNC(=O)CCSc2ccc(F)cc2)cc1OC	i
Cc1cc(F)ccc1S(=O)(=O)N1CCCOC1CNC(=O)C(=O)NCCC1=CCCCC1 (stereo unspecified)	i
Cc1[nH]c2c(C)cccc2c1CCNC(=O)C1CCCCC1C(=O)OCC(F)(F)F (stereo unspecified)	i
CN(C)CCNc1oc(COc2ccc(Cl)cc2)nc1C#N	i
COc1ccc(OC)c(-c2cc(C(=O)N3CCc4ccccc4C3)no2)c1	i
CN(C)CCCN=C(NO)c1ccc(Cl)cc1Cl	i
CCCCc1cc(=O)oc2cc(C)cc(OC(C)C(=O)O)c12 (stereo unspecified)	i
O=C1c2ccccc2NC(c2cccs2)N1NS(=O)(=O)c1ccccc1 (stereo unspecified)	i
Cc1cccc(C(=O)Oc2ccccc2C2C[C@]3(C)CC(=O)NC3N2C(=O)c2cccc(C)c2)c1 (stereo partly specified)	i
O=C(c1ccc(Br)o1)N1N=C(c2ccc(Cl)cc2)CC1c1ccco1 (stereo unspecified)	i
Cc1ccc(/C=N/n2c(-c3ccncc3)n[nH]c2=S)s1	i
Following part:
SMILES	CHT PAM
CCc1c(C)c2ccc(OCC(=O)NCC3CCC(C(=O)O)CC3)cc2oc1=O (stereo unspecified)	i
COc1ccc(Nc2cc(C(=O)NCc3cccnc3)c3ccccc3n2)c(OC)c1	i
CC(=O)c1ccc(NC(=O)c2ccc(N3C(=O)c4cccnc4C3=O)cc2)cc1	i
COC(c1ccccc1)c1nnc(CCC(=O)NCCc2ccc(Cl)cc2)o1 (stereo unspecified)	i
CCOC(=O)CCc1c(C)c(C#N)c2nc3ccccc3n2c1-n1ccnc1	i
COCCn1c(=O)[nH]c2cc(C(=O)NCCN3CCN(c4ccc(OC)cc4)CC3)ccc2c1=O	i
Cn1c(=O)c2c(SCC(=O)NCC3CCCO3)nc(CC(C)(C)C)nc2n(C)c1=O (stereo unspecified)	i
CC(C)=CCN1CCN(CCC2=C(C)CCCC2(C)C)CC1CCO (stereo unspecified)	i
CCc1cc(=O)[nH]c(SCC(=O)NCc2ccc3c(c2)OCO3)n1	i
O=C1/C(=C/c2ccccc2)NC(=S)N1C(c1ccccc1)c1ccccc1	i
Cc1cnc(CNC(=O)CC2C(=O)NCCN2Cc2cccc(F)c2F)cn1 (stereo unspecified)	i
COc1ccc(-c2csc(NC(=O)CSCC(=O)Nc3cc(C)on3)n2)c(OC)c1	i
O=C(N/N=C/C(Br)=C\c1ccccc1)c1ccc2nc[nH]c2c1	i
CCCSCCCNC(=O)Cn1cc2c(n1)CCCCC2	i
CC(C)CNC(CC(=O)Nc1cccc([N+](=O)[O-])c1)C(=O)O (stereo unspecified)	i
Cc1ccccc1Cn1nnc(-c2cccc(C(=O)O)c2)n1	i
COc1ccc(/C=C(\NC(=O)c2cccs2)C(=O)Nc2cccc3ccccc23)cc1OC	i
COc1cccc(/C=C2\SC(=S)N(CCC(=O)NCCc3ccc(O)cc3)C2=O)c1	i
CCn1c2c(c3cc(Cl)ccc31)CCCC2=O	i
COc1ccc(N(C(=O)c2snc(C(N)=O)c2N)C(C(=O)NCc2ccc(F)cc2)c2ccc(O)cc2)cc1 (stereo unspecified)	i
C=CCn1c(=S)[nH]c2cc(-c3ccccc3)sc2c1=O	i
COc1ccc(Cl)cc1NC(=O)CN(C)CC(=O)Nc1ccc(S(N)(=O)=O)cc1	i
Cn1nc(-c2ccc(C(=O)N3CCN(CCO)CC3)cc2)c2ccccc2c1=O	i
COCCn1cnnc1SCC(=O)Nc1sccc1C(N)=O	i
O=C(O)C1CC=CCC1C(=O)NCCc1cccc(Cl)c1 (stereo unspecified)	i
(further entries)
SMILES	CHT PAM
O=C(COC(=O)c1c2ccccc2cc2ccccc12)NCC(F)(F)F	i
CCOC(=O)C1C(=O)C=C(C)C(C(=O)OCC)C1c1cccc([N+](=O)[O-])c1 (stereo unspecified)	i
Cc1ccc(S(=O)(=O)N(C)Cc2nc(-c3ccccn3)no2)cc1	i
C=CCn1c(SCc2nc3ccccc3[nH]2)nnc1-c1ccncc1	i
COc1cc(C2CC(=O)c3c(ccc4ccccc34)N2)ccc1O (stereo unspecified)	i
CC1(C)CC(=O)C2=C(C1)N(c1ccc(F)cc1)C(=O)C2(NC(=O)c1ccccc1F)C(F)(F)F (stereo unspecified)	i
COc1ccc(NC(=O)CCc2nc(-c3ccc(C)cc3)no2)c(OC)c1	i
Cc1nnsc1C(=O)N/N=C/c1cccc(C(F)(F)F)c1	i
O=C(CN1CCN(S(=O)(=O)N2CCCCCC2)CC1)Nc1cc(Cl)ccc1Cl	i
Cc1ccc(-c2csc(N(Cc3ccccc3)C(=O)COc3ccccc3)n2)cc1	i
O=[N+]([O-])c1cccc(-c2nc(-c3ccccn3)no2)c1	i
COc1ccccc1CN1C(=O)C2CC=CCC2C1=O (stereo unspecified)	i
CC(=O)NC(=S)NNC(=O)COc1ccc([N+](=O)[O-])cc1	i
Cc1cc(C(=O)OCn2nnc3ccccc3c2=O)c(C)n1-c1ccccc1	i
O=C(O)c1cc(Cl)c(Cl)cc1C(=O)Nc1cccc2ncccc12	i
CCOc1ccc(CCNC(=O)C2=C(C)C(=O)OC23CCC(C)CC3)cc1OCC (stereo unspecified)	i
CC1(C(=O)O)C=CCN1C(=O)c1ccccc1 (stereo unspecified)	i
O=C(COC(=O)c1ccccc1C(=O)c1ccc(Cl)c([N+](=O)[O-])c1)NC1CC1	i
Cc1onc(-c2c(Cl)cccc2Cl)c1C(=O)NCCc1ccncc1	i
Clc1ccc(C2Nc3cccc4cccc(c34)N2)cc1	i
CN(c1ccccc1)S(=O)(=O)c1cccc(C(=O)Nc2nccs2)c1	i
O=C(Cc1ccc(Br)cc1)NC1CCCCC1	i
COc1cccc(/C=C/C(=O)OCC(=O)NCc2ccco2)c1OC	i
CCOC(=O)c1ccc(N/C(=N/S(=O)(=O)c2ccccc2)c2ccccc2)cc1	i
Cc1c(Br)c(-c2n[nH]c(=S)n2Cc2ccco2)nn1C	i
Further entries follow:
SMILES	CHT PAM
N/C(=N\OC(=O)c1ccccc1Cl)c1cccc([N+](=O)[O-])c1	i
CNc1cnn(-c2ccccc2)c(=O)c1Cl	i
O=C(CSc1nnc(Cc2cc(=O)[nH]c(=O)[nH]2)n1-c1ccc(Cl)cc1)NCC1CCCO1 (stereo unspecified)	i
COc1ccc(CCNC(=O)COC(=O)COc2ccc(Cl)cc2)cc1OC	i
N[C@@H](CO)c1cn([C@@H](Cc2cc3ccccc3[nH]2)C(=O)N2CCNCC2)nn1	i
N#Cc1cccc(C(c2nnnn2C2CCCC2)N2CCC(Cc3ccccc3)CC2)c1 (stereo unspecified)	i
COc1ccccc1CNC(=O)CCCc1nnc2n(C)c(=O)c3sccc3n12	i
O=C1c2ccccc2C(=O)C12OC2c1ccc(Cl)cc1 (stereo unspecified)	i
Cc1ccc(/C=C2\SC(=S)N(CCCC(=O)Nc3cc(C)on3)C2=O)cc1	i
Cc1nc2ccccc2n1Cc1ccc(Br)cc1	i
O=C(Nc1ccccn1)Nc1cccs1	i
O=C(Nc1ccccn1)c1ccc(Br)c(S(=O)(=O)N2CCCC2)c1	i
COc1cc2cc(CN(Cc3cccs3)C(=S)Nc3ccc(C)cc3)c(=O)[nH]c2cc1OC	i
O=C(Nc1ccccc1)C1=C[C@H](c2csc3ccccc23)C[C@H](OCCCCO)O1	i
N/C(=N\C(=S)Nc1ccccc1)c1ccccc1	i
CC(=O)NC1=NN(C(C)=O)C(C)(c2ccc(Cl)s2)S1 (stereo unspecified)	i
COc1ccccc1-c1nc(-c2ccccn2)no1	i
O=C1CCN(Cc2ccccc2)C(=O)N1c1ccccc1	i
CC(=O)Nc1ccccc1C(=O)C(=O)Nc1cccc(C(=O)N2CC(C)CC(C)C2)c1 (stereo unspecified)	i
Cc1ncoc1C(=O)Nc1cccc(Cl)c1	i
CC1(C)C(=O)Nc2ccccc2N1C(=O)COc1ncnc2c(Cl)cc(Cl)cc12	i
CCOC(=O)c1c(C)[nH]c(C)c1S(=O)(=O)NCC1CCN(Cc2cccc(Cl)c2)CC1	i
COC(=O)c1cccc(-n2c(C)cc(C=O)c2C)c1C	i
CC(C)(C)NC(=O)NC(=O)CN1CCN(c2ccccc2O)CC1	i
CCc1cc(C(=O)c2ccc(OC)cc2)c(NC(=O)CN2CCN(C)CC2)s1	i
(list continues)
SMILES	CHT PAM
Cc1ccc(OCC(=O)NNC(=O)c2ccc(-n3cncn3)c([N+](=O)[O-])c2)cc1	i
CC1(c2ccc([N+](=O)[O-])cc2)NC(=O)NC1=O (stereo unspecified)	i
CN1CCc2c(c3c(n2C)CCN(C)[C@@H]3c2cccnc2)[C@H]1c1cccnc1	i
CCc1ccc(N(C(=O)CNC(=O)c2ccco2)C(C(=O)NC2CCCC2)c2cccnc2)cc1 (stereo unspecified)	i
O=C(NCc1ccco1)c1cccc(NC(=O)c2ccccc2)c1	i
COc1ccccc1/C=N/NC(=O)COCC(=O)N/N=C/c1ccccc1OC	i
CCCC(CCC)C(=O)NCCN1CCOCC1	i
Cc1ccc(CCNC(=O)CN2C(=O)COc3ccc(S(=O)(=O)N4CCOCC4)cc32)cc1	i
O=C(NCCS(=O)(=O)NC1CCCC1)c1ccccc1	i
Cc1nn(-c2ccccc2)c2c1C(c1cccs1)C(C#N)=C(N)O2 (stereo unspecified)	i
Cc1ccc2nc(-c3ccccc3Cl)cc(C(=O)Nc3cc(C)on3)c2c1	i
COc1ccc(CNc2ncc(-c3cccc([N+](=O)[O-])c3)n2C)c(OC)c1OC	i
O=C(Nc1cccc(F)c1)c1ccc(S(=O)(=O)N2CCOCC2)cc1	i
COc1ccccc1N1CCN(C(=O)/C=C/c2ccco2)CC1	i
CCN(CC)S(=O)(=O)c1ccc(C(=O)NCCCN=C2NS(=O)(=O)c3ccccc32)cc1	i
O=C1Nc2ccccc2/C1=C\c1cccn1-c1ccc(OC(F)(F)F)cc1	i
O=C(CCS(=O)(=O)c1ccccc1)OCC(=O)N1CCN(S(=O)(=O)c2ccc(Cl)cc2)CC1	i
CS(=O)(=O)N(Cc1ccc(C(=O)Nc2ccccc2Sc2ccccc2)cc1)c1ccccc1	i
O=C(COC(=O)Cc1ccccc1[N+](=O)[O-])Nc1nnc(-c2ccccc2)o1	i
CCN(CC)S(=O)(=O)c1ccc2c(c1)N(CC(=O)NCCN1CCOCC1)C(=O)CO2	i
CNS(=O)(=O)c1cccc(C(=O)OCC(=O)Nc2ccc(N3CCCCC3)cc2)c1	i
COc1ccc(C(=O)NCCCNC(=O)c2cnccn2)cc1	i
COc1ccc([N+](=O)[O-])cc1NC(=O)C1(c2ccccc2)CCOCC1	i
Cn1c(NC(=O)Cc2cccc3ccccc23)cc(=O)n(C)c1=O	i
CC(=O)c1oc2ccccc2c1NC(=O)CN1CCCCC1	i
CCCn1c(SCC(=O)NC2CCCc3ccccc32)n[nH]c1=O (stereo unspecified)	i
Cc1ccc(S(=O)(=O)Nc2c(Cl)c(Cl)c(O)c3ccccc23)cc1	i

Arranged by SMILES length (highest first): 19 of the compounds above
SMILES	CHT PAM
O=C(CCS(=O)(=O)c1ccccc1)OCC(=O)N1CCN(S(=O)(=O)c2ccc(Cl)cc2)CC1	i
CCN(CC)S(=O)(=O)c1ccc(C(=O)NCCCN=C2NS(=O)(=O)c3ccccc32)cc1	i
Cc1ccc(OCC(=O)NNC(=O)c2ccc(-n3cncn3)c([N+](=O)[O-])c2)cc1	i
CS(=O)(=O)N(Cc1ccc(C(=O)Nc2ccccc2Sc2ccccc2)cc1)c1ccccc1	i
COc1ccc(CNc2ncc(-c3cccc([N+](=O)[O-])c3)n2C)c(OC)c1OC	i
O=C(COC(=O)Cc1ccccc1[N+](=O)[O-])Nc1nnc(-c2ccccc2)o1	i
COc1ccc([N+](=O)[O-])cc1NC(=O)C1(c2ccccc2)CCOCC1	i
O=C1Nc2ccccc2/C1=C\c1cccn1-c1ccc(OC(F)(F)F)cc1	i
COc1ccccc1/C=N/NC(=O)COCC(=O)N/N=C/c1ccccc1OC	i
O=C(Nc1cccc(F)c1)c1ccc(S(=O)(=O)N2CCOCC2)cc1	i
Cc1nn(-c2ccccc2)c2c1C(c1cccs1)C(C#N)=C(N)O2 (stereo unspecified)	i
Cn1c(NC(=O)Cc2cccc3ccccc23)cc(=O)n(C)c1=O	i
CCCn1c(SCC(=O)NC2CCCc3ccccc32)n[nH]c1=O (stereo unspecified)	i
CC1(c2ccc([N+](=O)[O-])cc2)NC(=O)NC1=O (stereo unspecified)	i
COc1ccccc1N1CCN(C(=O)/C=C/c2ccco2)CC1	i
COc1ccc(C(=O)NCCCNC(=O)c2cnccn2)cc1	i
CC(=O)c1oc2ccccc2c1NC(=O)CN1CCCCC1	i
O=C(NCCS(=O)(=O)NC1CCCC1)c1ccccc1	i
CCCC(CCC)C(=O)NCCN1CCOCC1	i

Compound activity: PubChem, Johns Hopkins Ion Channel Center
